Screening results: PubChem, National Center for Advancing Translational Sciences (NCATS)
miR-21 FLuc: raises the signal of a miR-21 reporter; HeLa miR-21 FLuc reporter, luciferase, 48 h; Potency, µM (series often up to 38.3 µM), for inactives: at the top dose reporter change, positive = more light; 340,000 tested, under 10 active; AID 2288; active = well fitted rising curve with a large enough effect; inconclusive = small, poorly fitted or top-dose-only effect; inactive = no such curve, though single readings can be large or run the other way;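 also: % of control where 0% means no effect; miR-21 action dims this reporter so a rising signal means less miR-21 action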
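Luminescence from a firefly luciferase reporter carrying a miR-21 binding site downstream, stably expressed under a CMV promoter in HeLa cells that make miR-21 endogenously, reports miRNA modulation after 48 h compound exposure up to approximately 40uM final.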
Rango-impB inh: Rango-importin beta binding inhibition. Q14974. Rango CFP/YFP FRET sensor + importin beta, 45 min. Potency, µM (doses to about 92.2 µM), without a hit: at the top dose inhibition of complex formation. 0.031% of 340,000 active. AID 540263; active = rising FRET ratio curve, often small or poorly fitted; inconclusive = mostly compound fluorescence or quenching in the first reads; inactive = flat curves in all reads;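 also: potency is read from the fitted curve at half-maximal effect; 0% = DMSO wells and 100% = buffer wells lacking importin beta; nearly all actives have a fitted effect of over 15% in size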
Target sequence (Q14974 whole entry, looked up): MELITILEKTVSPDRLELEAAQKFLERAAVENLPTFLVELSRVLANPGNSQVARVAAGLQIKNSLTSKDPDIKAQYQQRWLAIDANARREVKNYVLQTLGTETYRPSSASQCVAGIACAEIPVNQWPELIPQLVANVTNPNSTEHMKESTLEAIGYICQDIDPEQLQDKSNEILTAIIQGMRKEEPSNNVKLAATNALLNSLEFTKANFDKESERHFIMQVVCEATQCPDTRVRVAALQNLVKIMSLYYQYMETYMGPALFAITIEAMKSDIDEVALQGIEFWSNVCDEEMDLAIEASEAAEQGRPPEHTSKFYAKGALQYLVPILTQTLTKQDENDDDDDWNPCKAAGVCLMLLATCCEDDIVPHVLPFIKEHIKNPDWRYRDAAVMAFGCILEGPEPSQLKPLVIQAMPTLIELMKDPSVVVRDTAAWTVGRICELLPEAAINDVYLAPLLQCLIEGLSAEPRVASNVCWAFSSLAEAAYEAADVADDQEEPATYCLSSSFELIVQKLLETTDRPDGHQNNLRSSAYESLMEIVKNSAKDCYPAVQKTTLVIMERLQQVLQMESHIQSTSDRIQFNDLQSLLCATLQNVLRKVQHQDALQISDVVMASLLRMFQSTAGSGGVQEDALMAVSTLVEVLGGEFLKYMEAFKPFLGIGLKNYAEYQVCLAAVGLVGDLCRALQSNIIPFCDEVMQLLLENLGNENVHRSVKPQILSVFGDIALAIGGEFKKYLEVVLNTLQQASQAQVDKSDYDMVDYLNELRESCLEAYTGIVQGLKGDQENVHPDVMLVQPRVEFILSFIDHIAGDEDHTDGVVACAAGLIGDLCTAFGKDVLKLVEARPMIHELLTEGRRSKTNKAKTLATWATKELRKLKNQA
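Inhibition scored from the CFP 486 nm/YFP 530 nm FRET ratio 45 min after adding 0.125 microM importin beta to 50 nM Rango biosensor preincubated 5 min with compound (room temperature, PBS with DTT, Tween-20, BSA). No-importin wells as positive control.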
Rango dissoc inh: prevents RanGTP from dissociating the Rango-importin beta complex | Potency, µM (doses to about 46.1 µM), for inactives: at the top dose activity change, negative = inhibition | O95149+P62826 | 0.071% of 340,000 active | AID 540253 | Biochemical FRET Rango-importin beta, RanGTP-induced dissociation; active means falling FRET ratio curve, often poorly fitted, with flat reads before Ran was added; inconclusive means other falling curves, or compound fluorescence or quenching; inactive means flat or rising ratio curve;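 also: potency is read from the fitted curve at half-maximal effect; % of control where 0% means no effect; nearly all actives have a fitted effect of over 45% in size; -100% = wells without RanGTP and RCC1; the record marks most hits as doubtful in a second field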
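Rango (0.1 uM)–importin beta (0.25 uM) complex; RanGTP-RCC1 trigger; 45 min RT; CFP/YFP FRET read.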
GLA inh pH 4.5: blocks human alpha-galactosidase A at pH 4.5; P06280; purified enzyme, 4-MU-alpha-Gal fluorescence, pH 4.5; activity change, negative = inhibition, % at 105 µM; 230,000 tested, under 10 active; AID 1467; inconclusive = small, poorly fitted or top-dose-only inhibition, or a rising curve; inactive = flat fitted curve, though single readings scatter; no compound was filed as active;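 also: 0% = full activity with enzyme and -100% = basal without enzyme; dose as in the result columns while the protocol names 77 µM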
An asterisk follows results filed as active; ? = inconclusive; nt = no result given; & = joins results of further samples; [ ] = dose if it differs, or a comment. Some of the compounds tested, so the mix of outcomes need not match the whole.

The opening 5 compounds, ahead of the listing:
SMILES | miR-21 FLuc | Rango-impB inh | Rango dissoc inh | GLA inh pH 4.5
Cc1ccc(C(=O)C(C)OC(=O)CCS(=O)(=O)c2ccc(C)cc2)cc1 (stereo unspecified) | nt | 0.8% | 13% | nt
Cc1ccc(NC(=O)C(C)N2C(=O)C3CC=C(Cl)CC3C2=O)cc1 (stereo unspecified) | -2% | 2.8% | ? | -3
O=C(O)C1CC=CCC1C(=O)Nc1ccc(Oc2ccc(Cl)cc2)cc1 (stereo unspecified) | -2% | -1.5% | 2% | -2
CCN(CC)S(=O)(=O)c1cccc(C(=O)Nc2cc(C)nn2-c2ccccc2)c1 | 12% | 3.8% | -5% | 3
O=C(CNC(=O)c1ccc([N+](=O)[O-])cc1)N/N=C/c1c[nH]c2ccccc12 | 4% | 1.5% | 3% | nt

The listing, from the first entry:
SMILES | miR-21 FLuc | Rango-impB inh | Rango dissoc inh | GLA inh pH 4.5
Cc1ccc(C(=O)C(C)OC(=O)CCS(=O)(=O)c2ccc(C)cc2)cc1 (stereo unspecified) | nt | 0.8% | 13% | nt
Cc1ccc(NC(=O)C(C)N2C(=O)C3CC=C(Cl)CC3C2=O)cc1 (stereo unspecified) | -2% | 2.8% | ? | -3
O=C(O)C1CC=CCC1C(=O)Nc1ccc(Oc2ccc(Cl)cc2)cc1 (stereo unspecified) | -2% | -1.5% | 2% | -2
CCN(CC)S(=O)(=O)c1cccc(C(=O)Nc2cc(C)nn2-c2ccccc2)c1 | 12% | 3.8% | -5% | 3
O=C(CNC(=O)c1ccc([N+](=O)[O-])cc1)N/N=C/c1c[nH]c2ccccc12 | 4% | 1.5% | 3% | nt
Cc1cccc(C)c1OCC(=O)Nc1ccc(N2CCOCC2)cc1 | -9% | 4.3% | 1% | -3
CN1CCN(C(=O)Cn2c(C(F)(F)F)nc3ccccc32)CC1 | 4% | -0.7% | 9% | 0
COc1cc2c(cc1OC)-c1cc(NC3CCCCCC3)nc(=O)n1CC2 | -38%[0.307 µM] | -0.1% | 7% | nt
COCC(=O)N1CCC(Oc2ccc(C(=O)NCc3cc(C(C)C)no3)cc2)CC1 | 0% | -4.7% | 11% | nt
CCCN(CCC)CCCNc1ccc(C(=O)Nc2cccc(OC)c2)cc1[N+](=O)[O-] | -5% | 0.0% | 0% | -13
COc1nccc(C(F)(F)F)c1C(=O)NC(=O)Nc1ccccc1 | -1% | 2.4% | 26% | -4
Cc1csc2nc(CSc3ccc(Cl)cc3)cn12 | -49% | 0.5% | 8% | -4
COc1ccc(N2Cc3cccc(C(=O)N4CCN(C(=O)c5ccco5)CC4)c3C2=O)cc1 | -8% | -0.7% | -13% | -7
N#CCCn1nc(-c2ccc(Cl)cc2)cc1Nc1ccccc1NC(=O)C(F)(F)F | -1% | 0.2% | -1% | 6
COc1ccc(NS(=O)(=O)c2cc(NC(=O)c3cnc(C)cn3)ccc2N2CCCCC2)cc1 | 4% | -1.1% | 22% | -9
Cc1cc(C(=O)N/N=C\C(Br)=C\c2ccccc2)c(C)o1 | -16% | -1.5% | 7% | 2
OC(c1cccc(Cl)c1)c1nccc2ccccc12 (stereo unspecified) | -1% | 0.5% | 13% | nt
C=CCNCCOCCOc1ccccc1-c1ccccc1 | 9% | 0.9% | 14% | -2
Cc1oc(-c2ccc(Cl)cc2)[n+]([O-])c1C | -11% | 0.8% | 1% | 0
COc1cccc(CNn2cn[nH]c2=S)c1OCc1ccccc1 | -3% | -0.7% | -6% | -24

The closing 3 records of the part before lead into the next:
SMILES | miR-21 FLuc | Rango-impB inh | Rango dissoc inh | GLA inh pH 4.5
C=CCNCCOCCOc1ccccc1-c1ccccc1 | 9% | 0.9% | 14% | -2
Cc1oc(-c2ccc(Cl)cc2)[n+]([O-])c1C | -11% | 0.8% | 1% | 0
COc1cccc(CNn2cn[nH]c2=S)c1OCc1ccccc1 | -3% | -0.7% | -6% | -24
CCOC(=O)N1CCN(S(=O)(=O)c2cc(-c3nn4c(C)nnc4c4ccccc34)ccc2C)CC1 | 1% | 1.5% | -4% | -7
CCCN=C1NC(=O)C(CC(=O)NCCc2ccc(OC)c(OC)c2)S1 (stereo unspecified) | -5% | -0.9% | 0% | 0
COc1ccccc1C(=O)NNC(=O)C(=O)NC(C)(C)C | 3% | -4.1% | -17% | 10
CC(=O)c1ccc(NC(=O)CSc2nc(Nc3ccccc3)nc(N3CCOCC3)n2)cc1 | 2% | -0.5% | -4% | nt
Cc1[nH][nH]c(=O)c1C(c1c(C)[nH][nH]c1=O)c1cn(Cc2ccc(Cl)c(Cl)c2)c2ccccc12 | 23% | 6.0% | 7% | 3
COc1ccc(-n2nc(C(=O)O)c3ccccc3c2=O)cc1 | 9% | -1.5% | -3% | 5
CCN1C(=O)C(CC(=O)NCc2ccc(Cl)cc2)N(CC)C1=O (stereo unspecified) | -2% | 3.5% | 7% | 2
O=C(O)C1CCCN1C(=O)NC1CCCCC1 (stereo unspecified) | 0% | -4.2% | -4% | nt
CCCCC(=O)/C=C/n1c(=S)oc2ccccc21 | 20% | -0.6% | -7% | 5
CCC(=O)NC(Nc1sc2c(c1C(=O)OC)CCCC2)(C(F)(F)F)C(F)(F)F | -14% | -1.4% | -2% | 1

7 compounds out of the list above, sorted by their value in GLA inh pH 4.5, low to high:
structure,GLA inh pH 4.5
CCOC(=O)N1CCN(S(=O)(=O)c2cc(-c3nn4c(C)nnc4c4ccccc34)ccc2C)CC1,-7
CCCN=C1NC(=O)C(CC(=O)NCCc2ccc(OC)c(OC)c2)S1 (stereo unspecified),0
CCC(=O)NC(Nc1sc2c(c1C(=O)OC)CCCC2)(C(F)(F)F)C(F)(F)F,1
CCN1C(=O)C(CC(=O)NCc2ccc(Cl)cc2)N(CC)C1=O (stereo unspecified),2
Cc1[nH][nH]c(=O)c1C(c1c(C)[nH][nH]c1=O)c1cn(Cc2ccc(Cl)c(Cl)c2)c2ccccc12,3
CCCCC(=O)/C=C/n1c(=S)oc2ccccc21,5
COc1ccccc1C(=O)NNC(=O)C(=O)NC(C)(C)C,10

The list continues:
SMILES | miR-21 FLuc | Rango-impB inh | Rango dissoc inh | GLA inh pH 4.5
CC(=O)Nc1ccc(NC(=O)c2cccc3c2-c2ccccc2C3=O)cc1 | 0% | 2.2% | -21% | 1
CS(=O)(=O)N1CCN(c2ccccc2[N+](=O)[O-])CC1 | -2% | -3.8% | -4% | -4
O=S(=O)(Cc1ccccc1)Nc1ccc(F)cc1 | -1% | 5.6% | -10% | nt
COc1cc(/C=C(\C#N)C(=O)NCC2CCCO2)c([N+](=O)[O-])cc1OC (stereo unspecified) | -5% | 2.5% | 4% | -21
Clc1ccccc1-c1nn2c(-c3ccccn3)nnc2s1 | -22% | -1.3% | 5% | 3
COC(=O)c1ccccc1OCCCN(C)C | -1% | ? | -2% | 6
COC(=O)c1ccccc1NC1=C/C(=N\S(=O)(=O)c2cccs2)c2ccccc2C1=O | 26% | -4.5%&2.1% | -10%&-7% | 3
COc1cc(NC(=O)N[C@@H](Cc2c[nH]c3ccccc23)C(=O)O)c(C(=O)O)cc1OC | 5% | 0.2% | 5% | nt
Cc1cc2ccccn2c1C(=O)c1ccc(S(=O)(=O)N(C)C)cc1 | 10% | -1.4% | 3% | 1
Cc1ccc(S(=O)(=O)NCC(=O)OCC(=O)c2ccc(Br)s2)cc1 | 0% | -1.9% | -12% | 3
Cc1c(NC(=O)C(C)OC(=O)c2ncc(Cl)c(Cl)c2Cl)c(=O)n(-c2ccccc2)n1C (stereo unspecified) | nt | 0.6% | -6% | nt
O=C(CSc1nncn1-c1cccnc1)Nc1cccc(C(F)(F)F)c1 | -1% | 0.6% | 4% | nt
Cn1cnnc1SCC(=O)c1cc2ccccc2o1 | -5% | -1.7% | -5% | -17
COc1ccccc1S(=O)(=O)CC(O)COc1ccccc1Cl (stereo unspecified) | -4% | -2.4% | 1% | nt
COc1ccc(C(=O)NCc2cn3ccsc3n2)cc1OC | 1% | 0.2% | 4% | 1
COc1ccccc1CNC(=O)CCN1C(=O)c2ccccc2C1=O | -2% | -1.3% | 3% | nt
O=C(NCC(c1cccnc1)N1CCN(c2ccccc2F)CC1)c1cccc(Cl)c1 (stereo unspecified) | 21% | -1.0% | -8% | -4
Cc1ccc(C(=O)COC(=O)c2cn3ccccc3n2)cc1 | -44% | 2.5% | 17% | -7
CCN(C(=O)COC(=O)c1n[nH]c2ccccc12)c1ccccc1 | nt | 1.0% | 17% | nt
CC1CCN(C(=O)C2CCN(C(=O)c3cc4sccc4n3Cc3ccc(F)cc3)CC2)CC1 | 19% | 2.4% | -16% | -13
O=C(NCC1CCOCC1)c1cc(COc2ccc(F)cc2F)on1 | -5% | 0.7% | -16% | nt
O=C(COC(=O)c1ccc(F)cc1)NCC1COc2ccccc2O1 (stereo unspecified) | nt | 0.9% | -1% | nt
Cc1cc(C(C)(C)C)cc(C)c1S(=O)(=O)N1CC(=O)Nc2ccccc21 | -3% | -0.1% | 1% | -14
CC(C)c1csc(CN2CCN(Cc3ccccc3)C(CCO)C2)n1 (stereo unspecified) | -2% | -1.1% | -9% | 5
COc1ccc(OC(C)C(=O)Nc2ccccc2F)cc1 (stereo unspecified) | -9% | 3.9% | -10% | 6
O=c1c([N+](=O)[O-])c[nH]c2ccccc12 | 1% | -2.2% | 12% | 1
COC(=O)c1cc(Br)c(=O)n(-c2nccs2)c1 | -1% | 0.2% | 2% | -3
COc1cc(C)nc(Oc2ccc(OCCOc3ccc(C)cc3)nn2)n1 | -7% | -0.3% | 8% | 2
Cc1ccccc1OC(=O)C1C(c2ccccc2)C(C(=O)O)C1c1ccccc1 (stereo unspecified) | 6% | -2.8% | 9% | 12
COc1ccc2c(CC(=O)OCC(=O)NC(N)=O)coc2c1 | 0% | -6.1% | 15% | -8
O=C(OCn1nnc2ccccc2c1=O)C12CC3CC(CC(O)(C3)C1)C2 | -4% | 0.1% | 23% | 3
CCCCNc1nc2ccccc2nc1Cl | -1% | -0.1% | 8% | -16
Nc1c(C(=O)CSc2nnnn2-c2ccccc2)c(=O)[nH]c(=O)n1C1CC1 | nt | -3.4% | 2% | nt
O=[N+]([O-])c1cccc(S(=O)(=O)N2CCc3ccccc3C2)c1 | 7% | -0.7% | 34% | nt
CCc1cccc2c(C(=O)C(F)(F)F)cn(CC(=O)N3CCOCC3)c12 | 1% | -0.1% | 13% | 9
C=CCNC(=O)CC1C(=O)NCCN1Cc1ccc(-c2ccccc2)cc1 (stereo unspecified) | 0% | ? | 1% | 13
CCOC(=O)CC(NC(=O)C1c2ccccc2Oc2ccccc21)c1ccccc1Cl (stereo unspecified) | -1% | 2.1% | 17% | -1
CCOC(=O)c1ccc(NC(=S)N2CCCC(C)C2)cc1 (stereo unspecified) | -25% | 0.5% | 22% | -13
